Vaccinia pol inh: vaccinia E9 polymerase processive synthesis inhibition. in vitro processive DNA synthesis, absorbance read-out; hits give low values; some inactives read as strong as hits. normalized absorbance, % (test concentration not listed). 46,000 tested, 0.94% active. AID 493162;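 active = replicate mean up to 90% and picked by the depositor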;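 note: 100% = median of the test wells of a plate; 100 nL library stock went into each well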
An asterisk follows results filed as active. These rows are one share of the data; the hit share may differ from the screen's.

item	structure	Vaccinia pol inh
1	CSC1=NC2(C)CCCCC2c2c1ccc1ccccc21 (stereo unspecified)	100
2	CCc1cccc(NC(=S)N(CCC(C)C)C(C)c2cccs2)c1 (stereo unspecified)	116
3	O=S(=O)(c1ccccc1)c1nnn2c1nc(Nc1ccccc1)c1sccc12	106
4	O=C(COC(=O)c1ccc2ccccc2n1)NC(c1ccccc1)c1ccccc1	93
5	COc1ccccc1NC(=O)COc1ccc(Oc2ccccc2)cc1	93
6	COc1ccccc1C1=NC(c2ccccc2)CN1c1ccccc1 (stereo unspecified)	99
7	CCOC(=O)c1nnn2c3ccccc3c(=O)n(Cc3ccc(Cl)cc3)c12	106
8	COC(=O)C(C)n1cnc2scc(-c3ccc(OC)cc3)c2c1=O (stereo unspecified)	109
9	Cc1ccc(S(=O)(=O)N2CCCCC2)cc1-n1c(C)ccc1C	100
10	OC(c1ccccc1)(c1ccccc1)C(F)(F)F	85
11	CCC(CC)C(=O)NCCc1cc2c(C)ccc(C)c2[nH]c1=O	100
12	Cc1cc(-c2ccccc2)[nH]c(=O)c1S(=O)(=O)c1ccccc1	110
13	O=C1Cc2cc(S(=O)(=O)NC3CCCC3)ccc2N1	94
14	CCN(CC)c1ccc2cc(C(N)=O)c(=Nc3ccc(F)cc3)oc2c1	100
15	S=c1[nH]nc(C2(c3ccccc3)CCCC2)o1	99
16	O=C(Nc1ncc(Cc2cc(Cl)ccc2Cl)s1)C1CCCO1 (stereo unspecified)	98
17	c1coc(CCC2=NCCn3cccc32)c1	100
18	O=C(NCCN1CCCCCC1)c1ccc2c(c1)ncn2C1CCCCC1	97
19	Cc1ccc(Cl)c(Nc2ccccc2C(=O)O)c1Cl	96
20	CN1CCN(c2nc(-c3ccccc3)c3ccccc3n2)CC1	101
21	COc1ccc(C(=O)COC(=O)CN2C(=O)C3CC=CCC3C2=O)cc1 (stereo unspecified)	99
22	NC1=NN(c2ccccc2)CC1	98
23	CC1CN(CC(O)COCCC23CC4CC(CC(C4)C2)C3)CC(C)O1 (stereo unspecified)	86
24	O=C(CSc1c2c(nc3ccccc13)CCCC2)NC1CCCCC1	98
25	Cc1cccc(Cn2cnc3ccccc32)c1	102

7 entries picked at random from the list so far, as already listed:
item	structure	Vaccinia pol inh
4	O=C(COC(=O)c1ccc2ccccc2n1)NC(c1ccccc1)c1ccccc1	93
21	COc1ccc(C(=O)COC(=O)CN2C(=O)C3CC=CCC3C2=O)cc1 (stereo unspecified)	99
19	Cc1ccc(Cl)c(Nc2ccccc2C(=O)O)c1Cl	96
10	OC(c1ccccc1)(c1ccccc1)C(F)(F)F	85
15	S=c1[nH]nc(C2(c3ccccc3)CCCC2)o1	99
25	Cc1cccc(Cn2cnc3ccccc32)c1	102
12	Cc1cc(-c2ccccc2)[nH]c(=O)c1S(=O)(=O)c1ccccc1	110

Quoted from above: entries 1–5
item	structure	Vaccinia pol inh
1	CSC1=NC2(C)CCCCC2c2c1ccc1ccccc21 (stereo unspecified)	100
2	CCc1cccc(NC(=S)N(CCC(C)C)C(C)c2cccs2)c1 (stereo unspecified)	116
3	O=S(=O)(c1ccccc1)c1nnn2c1nc(Nc1ccccc1)c1sccc12	106
4	O=C(COC(=O)c1ccc2ccccc2n1)NC(c1ccccc1)c1ccccc1	93
5	COc1ccccc1NC(=O)COc1ccc(Oc2ccccc2)cc1	93

Next part
item	structure	Vaccinia pol inh
26	COc1cc(C(=O)/C=C/Nc2ccc(N(C)C)cc2)cc(OC)c1OC	94
27	Cc1ccc(SCc2ccccc2-c2nc3ccccc3[nH]2)cc1	85
28	O=C(/C=C/c1ccco1)Nc1ccc2nc3n(c(=O)c2c1)CCCC3	101
29	Cc1cc(C)n(C(N)=S)n1	99
30	COc1ccc(-n2c(=S)[nH]c3cc(C(=O)N4CCN(c5ccccc5)CC4)ccc3c2=O)cc1	98
31	Cc1ccc(C)c(NCC(O)c2ccccc2)c1 (stereo unspecified)	104
32	CC(C)CCNC(=O)C1C2C(=O)N(Cc3ccccc3)CC23C=CC1(C)O3 (stereo unspecified)	97
33	C=CCn1c(=S)[nH]c2sc3c(c2c1=O)CC(C)(C)OC3	100
34	CC1CC(C)CN(C(=O)c2ccccc2NS(=O)(=O)c2ccc(F)cc2)C1 (stereo unspecified)	105
35	CNc1nc(-c2cccs2)cc(C(F)(F)F)n1	95
36	Cc1ccc(NC2=CC(=O)CC(c3ccc(Cl)cc3)C2)cc1 (stereo unspecified)	99
37	CCc1nc(C)cn1S(=O)(=O)c1cc(OC)ccc1OC	100
38	CCn1cc(C(=O)Nc2ccccc2)c(=O)c2cc(Cl)ccc21	89
39	C=CCN(C(=O)C1CC=CCC1)c1ccccc1 (stereo unspecified)	96
40	CC1CCCC(C)N1CC(C)(C)NS(=O)(=O)c1ccccc1 (stereo unspecified)	98
41	COc1ccccc1CNC(=O)C1COc2ccccc2O1 (stereo unspecified)	99
42	CCOC(=O)N1C/C(=C\c2ccccc2)C(=O)/C(=C/c2ccccc2)C1	99
43	COc1cc2c(cc1NC(=O)Cc1ccccc1)oc1ccccc12	100
44	O=C(O)CC(C1CC=CCC1)N1Cc2ccccc2C1=O (stereo unspecified)	102
45	O=C(Nc1ccc2c(c1)OCO2)c1cncc(NS(=O)(=O)c2ccccc2)c1	98
46	C=CCc1ccccc1OCc1ccc(C(=O)O)cc1	100
47	O=C(CSC1=NCCCN1)N1CCCCC1	101
48	Nc1c(C(=O)N2CCCCC2)sc2nc3c(cc12)CCC3	100
49	CCOC(=O)[C@]1(C#N)[C@@H]2C=CC(C(N)=O)=CN2[C@@H](C(N)=O)[C@@H]1c1ccc(Cl)cc1	101
50	O=C(COC(=O)c1ccc(NC(=O)c2ccc(Cl)cc2)cc1)c1ccccc1	106

item	structure	Vaccinia pol inh
51	O=C(O)c1ccc(CSc2nnnn2C2CCCCC2)cc1	97
52	Cc1cc(C)nc(SCC(=O)NC2=NC(=O)C(C)S2)n1 (stereo unspecified)	104
53	COc1ccc2ncc(C(=O)NC3CCCC3)c(Cl)c2c1	101
54	O=C(CSc1ccc(-c2ccncc2)nn1)NCCc1ccccc1	103
55	COC(=O)c1ccc2c3c(cccc13)CC2	101
56	O=C(Cn1cc(/C=N/n2cnnc2)c2ccccc21)Nc1ccc2c(c1)OCO2	100
57	Fc1ccccc1OCCBr	101
58	CCc1c(C#N)c(N)nc(SCC#N)c1C#N	97
59	Cc1sc2nc(SC/C=C/c3ccccc3)nc(N)c2c1C	100
60	CN1CCN(C(=O)/C=C/c2cccs2)CC1	101
61	Cc1nc2cc(-c3ccccc3)nn2c(C)c1CC(=O)NCc1ccccc1	103
62	O=C(c1ccccc1)c1cn(CCCOc2ccccc2)c2ccccc12	106
63	CCCCc1ccc(-n2c(-c3ccc(F)cc3)coc2=O)cc1	108
64	CS(=O)(=O)c1ccccc1	114
65	COC(=O)c1ccc(C2C3=C(CC(C)(C)CC3=O)Nc3ccccc3N2C(=O)C(C)C)cc1 (stereo unspecified)	100
66	O=C(O)/C=C/C(=O)Nc1ccccc1	101
67	CCN=C1S/C(=C/c2ccc(OCC(=O)O)c(Cl)c2)C(=O)N1CC	96
68	CCc1ccccc1NC(=O)c1cc(Cl)sc1Cl	101
69	COC(=O)C(CCCN1C(=O)c2ccccc2C1=O)(NC(C)=O)c1nn[nH]n1 (stereo unspecified)	99
70	COc1ccc2cc(Br)ccc2c1CC#N	99
71	CCCCC(C(N)=O)N1C(=O)C2C3C=CC(C3)C2C1=O (stereo unspecified)	100
72	COc1ccc(NC2CC(=O)N(Cc3ccccc3)C2=O)cc1 (stereo unspecified)	100
73	CN1CCC[C@H]1c1cccnc1	100
74	O=C(CCC1CCCCC1)NCCC12CC3CC(CC(C3)C1)C2	100
75	O=S(=O)(c1ccccc1)C(/C=N\O)/C=C/c1ccccc1 (stereo unspecified)	123

item	structure	Vaccinia pol inh
76	Cc1ccc(-c2nc(S(=O)(=O)c3ccccc3)c(SCC(N)=O)o2)cc1	87
77	O=c1oc2ccccc2c(NCc2ccc3c(c2)OCO3)c1CN1CCCC1	100
78	CN1CCc2c(OCC(=O)Nc3ccccc3)cccc2C1=O	101
79	NC(=O)C1CCN(C(=O)/C(=C/c2ccco2)NC(=O)c2ccccc2)CC1	100
80	CCC(Sc1nc2c(cc1C#N)CCCCC2)C(=O)Nc1cc(C)on1 (stereo unspecified)	101
81	CN(C)c1ccc(CNc2ccc3c(c2)ncn3-c2ccccc2)cc1	100
82	Cc1cc(-c2ccccc2)o[n+]1C	100
83	Cc1cccc(NC(=O)N2CCC(CN3CCc4ccccc4C3)CC2)c1	103
84	CSc1nc2ccc(NC(=O)C3COc4ccccc4O3)cc2s1 (stereo unspecified)	100
85	Cc1ccc2nc(NCc3cccnc3)c(C=NCc3cccnc3)c(=O)n2c1	100
86	Cc1ccc(-c2nn(-c3ccccc3)cc2C(=O)NCCN(C)C)cc1	103
87	COc1cc2c(cc1OC)C(C)N(Cc1sc3ccccc3c1C)CC2 (stereo unspecified)	84
88	COc1cc(S(=O)(=O)N2CCCCC2)ccc1F	89
89	Cc1cccn2cc(-c3ccc(Cl)cc3)cc12	100
90	CCOc1cc(/C=C2\SC(=S)N(C(C(=O)O)C(C)C)C2=O)ccc1O (stereo unspecified)	95
91	CC(C)(O)C1(C)NCCc2ccccc21 (stereo unspecified)	100
92	O=C(O)c1ccccc1-c1ccccc1C(=O)Nc1nccs1	70
93	O=C1CC(c2ccc(Cl)cc2)Sc2nc3ccccc3n21 (stereo unspecified)	100
94	Cn1c(CCCNC(=O)c2cccs2)nc2ccccc21	99
95	CCOc1ccccc1C1C(C#N)=C(SCc2ccccc2)NC(=O)C1C#N (stereo unspecified)	97
96	O=C(CC(=O)Nc1cccnc1)Nc1cccnc1	87
97	O=C(c1cncc(NS(=O)(=O)c2ccc(Cl)cc2)c1)N1CCN(Cc2ccccc2)CC1	99
98	N#Cc1c(Nc2ccccc2)s[nH]c1=O	99
99	Fc1ccc(Oc2cnc3ccccc3n2)cc1	74
100	Cc1ccc2[nH]c(=O)c3cc(C(=O)N(CC(C)C)CC(C)C)sc3c2c1	101

item	structure	Vaccinia pol inh
101	COc1ccc(CNC(=O)c2oc3ccccc3c2C)cc1	101
102	Cc1[nH]c2ccccc2c1C(Nc1ccccn1)c1ccccc1 (stereo unspecified)	114
103	CN(Cc1ccccc1)C(=O)COC(=O)c1ccc2ccccc2n1	99
104	NC(CC(=O)O)C1CCCCC1 (stereo unspecified)	102
105	Cc1cccc(-c2nc(CN3C(=O)C(C)N=C(c4ccccc4F)c4cc(Cl)ccc43)c(C)o2)c1 (stereo unspecified)	104
106	O=C(O)c1ccc(S(=O)(=O)n2ncc3ccccc32)cc1	101
107	CC(CCc1ccccc1)NC(=O)C1=CCN(S(=O)(=O)c2ccc(F)cc2)CC1 (stereo unspecified)	96
108	Cc1ccc(Cn2c3ccccc3c3cn[nH]c(=O)c32)cc1	100
109	CCOC(=O)c1c(N)oc2c(-c3ccc(CC)cc3)c3c(C(=O)OCC)c(N)oc3cc12	100
110	Cc1ccc2oc(=O)c3cc(C(=O)N4CCN(c5ccc(F)cc5)CC4)sc3c2c1	101
111	COc1ccc2c(c1)c(C(=O)O)c(C)n2-c1ccccc1	95
112	CCCCN(C)C(=O)C1CCC(=O)N(c2cc(OC)c(OC)c(OC)c2)C1c1ccc(OC)cc1 (stereo unspecified)	100
113	O=C(C1c2ccccc2C(=O)N2CCc3ccccc3C12)N1CCCC1 (stereo unspecified)	96
114	COc1ccc(Cl)cc1C(=O)N1CCCC1C(=O)OCc1ccccc1 (stereo unspecified)	101
115	CN1CCN(CC2CC=CCC2)CC1 (stereo unspecified)	100
116	COC(=O)NCN1C(=O)C2C3C=CC(C3)C2C1=O (stereo unspecified)	96
117	CC1CCN(C(=O)c2cc3c(s2)-c2ccc(Cl)cc2SC3)CC1	96
118	COc1ccc(S(=O)(=O)Nc2cc3oc4ccccc4c3cc2OC)cc1	100
119	Cc1ccc(C2=C/C(=C3\OC(=O)c4ccccc43)C(=O)O2)cc1	98
120	CC(C)(C)c1ccc(NC(=O)C2CCCCN2S(=O)(=O)c2ccccc2)cc1 (stereo unspecified)	94
121	CN(C)CCCn1c(N)c(-c2nc3ccccc3[nH]2)c2nc(C#N)c(C#N)nc21	100
122	Cc1c(C(=O)N2CCC3(CC2)OCCO3)sc2nc3n(c(=O)c12)CCCC3	95
123	CC12CC(c3ccccc3O1)N(C(=O)c1cccc(F)c1)C(=S)N2c1ccccc1 (stereo unspecified)	102
124	COc1ccc(-c2c(C)nn3c(NCCC4=CCCCC4)cc(C)nc23)cc1OC	84
125	CCc1ccc(CN2C(=O)c3ccccc3C2C(=O)NCCc2ccccc2)cc1 (stereo unspecified)	104

item	structure	Vaccinia pol inh
126	Cc1cc(C)cc(CC(C)CC(=O)Nc2ccccc2I)c1 (stereo unspecified)	99
127	COc1ccc(S(=O)(=O)N2CCNC(=O)CC2)cc1	101
128	CCc1ccccc1Oc1coc2cc(OC(=O)c3ccccc3F)ccc2c1=O	100
129	O=C(O)c1ccccc1SC/C=C/c1ccccc1	83*
130	CC1CCN(C(=O)CN(c2ccc(Cl)c(C(F)(F)F)c2)S(=O)(=O)c2ccccc2)CC1	100
131	COc1ccc2c(c1)-c1nc(N)sc1CC2	92
132	O=C(CCS(=O)(=O)c1cc(Br)cc2c1N(C(=O)C1CC1)CC2)NC1CCCCCC1	104
133	CCCNC(=O)c1c(C)cc(=O)oc1C	104
134	O=C(Nc1ccc(OC(F)(F)F)cc1)C1=NCCN1	101
135	O=C(Nc1ccc(NC(=O)c2ccccc2O)cc1)c1ccc(Cl)cc1	104
136	CNCC(O)CN1CCN(c2ccccc2OC)CC1 (stereo unspecified)	102
137	COc1ccc(C2c3ccsc3CCN2S(=O)(=O)c2ccc(Cl)cc2)cc1 (stereo unspecified)	100
138	O=c1c(-c2ccccc2)c(O)nc2ccccn12	100
139	O=C1CC(c2cccs2)CC(O)=C1C=NCCN1CCNCC1 (stereo unspecified)	100
140	Cc1ccc(-c2cc(C(=O)N3CC(C)OC(C)C3)c3ccccc3n2)cc1 (stereo unspecified)	104
141	CCCC(NC(=O)c1ccccc1)c1nc2ccccc2[nH]1 (stereo unspecified)	97
142	CN(Cc1ccccc1)C(=O)COC(=O)Cc1ccc(Cl)cc1	104
